Screening results from PubChem BioAssay.
UCH37 inh – inhibitors of human deubiquitinating enzyme UCH37 | actives 0.33% (n = 330,000) | AID 588478 | purified proteasome/UCH37, Ub-AMC cleavage fluorescence | inhibition, % (concentration not given with the values);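 active = mean of two replicates above 20%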;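 also: 0% = compound-free wells with enzyme and 100% = wells lacking proteasome; stock transfer was 100 nL into about 20 µL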
Target sequence (Q9Y5K5 whole entry, looked up): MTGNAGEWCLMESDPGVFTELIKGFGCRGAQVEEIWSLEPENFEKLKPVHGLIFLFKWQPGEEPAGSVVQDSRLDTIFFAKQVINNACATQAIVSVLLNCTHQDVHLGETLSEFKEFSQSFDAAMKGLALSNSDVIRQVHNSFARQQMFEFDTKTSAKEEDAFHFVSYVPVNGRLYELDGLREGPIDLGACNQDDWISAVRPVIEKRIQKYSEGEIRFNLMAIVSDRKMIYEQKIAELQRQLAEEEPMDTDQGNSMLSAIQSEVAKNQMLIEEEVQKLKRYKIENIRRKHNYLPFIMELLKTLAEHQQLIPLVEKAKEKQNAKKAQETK
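system = Proteasome-associated human UCH37 deubiquitinase | amount = 0.15 nM proteasome as dispensed | medium = pH 7.4 Tris-HCl (50 mM) with ovalbumin, ATP-MgCl2, DTT | incubation = 30 min preincubation with enzyme, 25 min cleavage at room temperature | detection = AMC fluorescence 355/460 nm | read-out basis = percent inhibition | controls = no-proteasome and no-compound wells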
FGF22 binding – binders of recombinant human FGF22 by thermal shift | Q9HCT0 | SYPRO orange fluorescence; percent of sucrose octasulfate shift, DMSO zero | calls only at 9.99 µM | actives 1.5% (n = 340,000);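 active = melting point raised past a set limit in the mean and every replicate; three in four hits are not shown here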
E coli growth – inhibitors of Escherichia coli growth; actives 0.21% (n = 330,000); OD600, 23 h; hits give low values; OD600 absorbance (concentration not given with the values);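 active = OD600 absorbance below the run mean of sample wells minus 3.6 SD, in any replicate, cut at about 0.56 in these data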;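 also: stock transfer was 300 nL into about 60 µL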
B2AR ag – agonists of human beta-2 adrenergic receptor inducing internalization; actives 0.43% (n = 340,000); P07550; Am2.2-beta2AR cells, FAP receptor internalization, flow cytometry; reference of the scale not given here; response, % (no concentration beside the values); AID 504454;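 active = response above a set limit, near 3 SD of response in nonfluorescent compounds, cut at about 42% in these data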;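 also: stock transfer was 100 nL into about 11 µL; a reference agonist was the positive control; negative values mostly stem from fluorescent compounds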
Target sequence (P07550 whole entry, looked up): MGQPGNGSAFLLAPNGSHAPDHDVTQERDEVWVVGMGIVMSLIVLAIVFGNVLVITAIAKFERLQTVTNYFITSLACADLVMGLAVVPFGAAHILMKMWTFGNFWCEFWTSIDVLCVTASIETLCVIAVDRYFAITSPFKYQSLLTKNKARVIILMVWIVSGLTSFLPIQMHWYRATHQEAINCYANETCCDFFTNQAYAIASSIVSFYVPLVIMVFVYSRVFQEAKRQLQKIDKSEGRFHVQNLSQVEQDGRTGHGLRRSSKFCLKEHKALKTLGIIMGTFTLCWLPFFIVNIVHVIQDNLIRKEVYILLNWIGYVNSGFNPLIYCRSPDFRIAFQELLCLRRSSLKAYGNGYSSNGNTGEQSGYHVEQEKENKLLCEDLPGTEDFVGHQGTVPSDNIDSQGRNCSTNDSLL
ALR inh – blocks human ALR sulfhydryl oxidase activity. purified ALR, DTT oxidation, H2O2 HRP-luminol luminescence. inhibition, % (test concentration not listed). actives 3.8% (n = 290,000). AID 485317;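 active = mean and each replicate at 75% or more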;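 also: stock transfer was 7.5 nL into about 7.5 µL; 0% = neutral wells and 100% = wells with inactivated enzyme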
Target sequence (P55789 whole entry, looked up): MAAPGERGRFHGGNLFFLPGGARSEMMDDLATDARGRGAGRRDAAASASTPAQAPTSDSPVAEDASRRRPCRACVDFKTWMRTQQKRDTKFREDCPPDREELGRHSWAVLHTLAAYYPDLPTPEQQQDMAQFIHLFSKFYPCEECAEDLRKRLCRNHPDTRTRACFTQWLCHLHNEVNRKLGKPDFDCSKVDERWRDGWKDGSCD
HNF4A DNA FP – change in binding of human HNF4 alpha to DNA. P41235. HNF4a-FITC DNA binding, fluorescence polarization, 1 h. activity change, % at 10 µM. actives 0.3% (n = 360,000). AID 1224865; in the data active = activity change above about 30%, passing the limit was not always enough;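 also: controls were the assay level and a saturating level of protein; the project sought stronger binding though the title names inhibitors; some compounds called inactive have numbers as strong as hits; positive values seem to mean higher polarization but the record does not say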
LANA-H2B inh – blocks KSHV LANA binding to histone H2A/H2B | Q9QR71 | cell-free LANA-H2A/H2B peptide, fluorescence polarization | inhibition, % (no concentration beside the values) | actives 0.6% (n = 320,000) | AID 2629; in the data active = inhibition mostly above about 10%, no sharp cut-off; inactive = mostly below about 6.7%;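 also: stock transfer was 7.5 nL into about 10 µL; 0% = median of vehicle wells and 100% = median of positive control wells; one replicate is shown; the record names a cut of 25% in any replicate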
Active calls of the source: *; i = inactive; / = not tested or not shown. The list is partial. The share of hits here may be higher or lower than overall.

UCH37 inh	FGF22 binding	E coli growth	B2AR ag	ALR inh	HNF4A DNA FP	LANA-H2B inh	Structure
0.8	i	0.67	-8	1	4.2	-1.0	CCOCc1c(C(=O)NCC(c2ccco2)N2CCCC2)oc2ccccc12 (centres undefined)
-1.1	i	0.68	-2	8	-3.1	-4.6	CCOC(=O)N1CCN(C(=O)c2ccc(NS(=O)(=O)c3ccc(C)cc3)cc2)CC1
3.9	i	0.69	8	-4	-1.4	0.7	N#Cc1ccccc1S(=O)(=O)N1CCN(C(=O)C2CCCC2)CC1
2.2	/	0.73	5	-2	4.7	1.0	Cc1ccc2c(Cl)cc(Cl)c(OCC(=O)Nc3cc(S(=O)(=O)N(C)C)ccc3C)c2n1
5.2	/	0.74	2	-5	-1.5	5.0	CC1CCc2c(nc3ncnn3c2N2CC(C)OC(C)C2)C1 (centres undefined)
/	/	/	-3	13	2.0	-0.3	COc1ccccc1/C=N/NC(=O)C(=O)N1CCN(c2ccccc2OC)CC1
0.3	/	0.7	-1	9	-1.8	-0.1	CCOc1ccc(OC(=O)NC(c2ccccc2)C(Cl)(Cl)Cl)cc1 (centres undefined)
i	/	0.68	1	3	-2.9	2.6	O=c1oc2c(CN3CCCCC3)c(O)ccc2c2c1CCCC2

Further compounds:
UCH37 inh	FGF22 binding	E coli growth	B2AR ag	ALR inh	HNF4A DNA FP	LANA-H2B inh	Structure
2.0	/	0.69	11	-1	1.9	-3.1	CCOC(=O)c1nnn(CC(=O)Nc2cccc(F)c2)c1C(=O)OCC
0.1	i	0.64	4	/	3.5	-0.7	COCCCN(CC(=O)Nc1ccc(F)cc1)S(=O)(=O)c1cccs1
5.4	/	0.7	4	-1	0.9	4.3	O=C(CCC1CCCC1)Nc1ccccc1-c1ccccc1
3.4	i	0.69	5	/	-4.3	-0.4	Cc1cccnc1NC(=O)CNC(=O)c1ccccc1
7.2	i	0.7	1	0	0.9	1.2	O=C(COC(=O)c1cc([N+](=O)[O-])ccc1N1CCOCC1)Nc1ccc(Cl)cc1
2.9	i	0.7	-10	/	-2.6	/	COc1ccc(-c2nn(-c3ccccc3)cc2C(=O)NC2CCCCC2C)cc1 (centres undefined)
/	i	/	1	/	-50	2.1	C/C(=N\Nc1ccc(C#N)cc1[N+](=O)[O-])c1ccc(C)o1
4.8	i	0.69	20	1	2.2	71*	C=CCC[C@H](Cc1ccc(F)cc1)C(=O)O[C@H](CNC(=O)[C@@H](CC=C)CC(=O)N(CCO)Cc1ccccc1)c1ccccc1

(cont.)
UCH37 inh	FGF22 binding	E coli growth	B2AR ag	ALR inh	HNF4A DNA FP	LANA-H2B inh	Structure
4.0	i	0.74	10	-2	0.4	-4.9	COc1ccc(NC(=O)c2ccccc2Oc2ccccc2)c(OC)c1
1.2	i	0.69	2	-23	0.0	5.5	CC(C)CNC(=O)C1CCCN(C(=O)NCc2ccccc2)C1 (centres undefined)
-2.1	/	0.71	68*	-7	0.9	3.2	c1ccc(CC2CCN(c3nc4ccccc4n4cnnc34)CC2)cc1
3.9	i	0.72	0	-1	0.8	4.3	COc1ccc(C2=Nn3c(nnc3-c3ccccc3Cl)SC2)cc1OC1CCOC1 (centres undefined)
3.9	/	0.68	18	-35	1.0	-6.6	O=C(COc1ccc2ccccc2c1Br)Nn1cnnc1
0.9	/	0.68	1	-9	4.2	-1.1	N#CC1(NC(=O)COC(=O)CN2C(=O)c3ccccc3C2=O)CCCCC1
4.0	/	0.67	-3	-3	-1.3	1.7	CCC(=O)N1CCc2cc(S(=O)(=O)NC(Cc3ccccc3)C(=O)NC3CCCCC3C)ccc21 (centres undefined)
11	i	0.7	2	-33	5.0	1.8	COc1ccc(C2c3ccc4ccccc4c3Oc3ncn(CCN4CCOCC4)c(=N)c32)cc1OC (centres undefined)

(list continues)
UCH37 inh	FGF22 binding	E coli growth	B2AR ag	ALR inh	HNF4A DNA FP	LANA-H2B inh	Structure
2.3	/	0.76	2	-5	1.2	1.6	COc1ccc(OC)c(NC(=O)CN(c2ccc(C)cc2)S(=O)(=O)c2c(C)noc2C)c1
-1.3	/	0.72	-5	-10	-0.5	-4.8	CCc1c(C(=O)NCc2ccc3c(c2)OCO3)[nH]c(C)c1C(C)=O
-2.1	i	0.72	3	98*	-1.1	-0.9	COCCn1c(SCC(=O)Nc2cccc(NC(C)=O)c2)nc2c([nH]c3ccccc32)c1=O
5.4	i	0.67	-1	0	2.3	8.2	O=C(CCNC(=O)c1ccccc1Cl)NCCCSc1ccccc1
1.9	/	0.73	7	-6	1.6	2.5	O=S(=O)(Nc1ccccc1N1CCCCC1)c1ccc(Cl)s1
-1.5	i	0.66	-1	-3	-1.7	3.4	COc1ccc(C(CNC(=O)Cc2ccccc2F)N2CCCCC2)cc1 (centres undefined)
5.0	/	0.69	0	54	3.2	2.7	O=C(N1CCOCC1)N1CCN(c2ccccc2)CC1
2.4	i	0.7	-1	-1	-1.6	0.7	CC(=O)c1cccc(CN2CCC(n3nccc3NC(=O)CCOc3ccccc3)CC2)c1

Going on with the list.
UCH37 inh	FGF22 binding	E coli growth	B2AR ag	ALR inh	HNF4A DNA FP	LANA-H2B inh	Structure
-0.2	i	0.65	-6	-4	0.6	-2.1	Fc1ccc(-c2csc(-c3ccccn3)n2)cc1F
4.8	i	0.68	-5	/	2.1	-0.4	C#CCN(CC=C)C(=O)c1ccc2nc(C3CCCCC3)oc2c1
1.5	/	0.65	2	-2	-2.8	-5.0	Cc1cc(C)c(C#N)c(SCC(=O)OC2CCCCC2)n1
4.7	/	0.58	4	48	1.2	1.6	O=C(Nc1ccccc1)N(O)c1ccc(Cl)cc1
1.3	i	0.65	-7	-4	1.8	-0.5	COc1ccc(Cc2nnc(NS(C)(=O)=O)s2)cc1
/	i	/	0	5	2.2	2.5	C/C(=N/OC(=O)c1ccc(Cl)cc1Cl)c1oc(C)nc1C
4.6	i	0.71	1	2	-0.5	-2.7	Cc1cccc2sc(NC(=O)[C@H](C)N3C(=O)C4CC=CCC4C3=O)nc12 (some centres undefined)
/	/	/	-10	5	0.4	0.4	C/C(CC(=O)NC1CCCCC1)=N\NC(=O)COc1ccc(C)cc1Br

(next part)
UCH37 inh	FGF22 binding	E coli growth	B2AR ag	ALR inh	HNF4A DNA FP	LANA-H2B inh	Structure
0.5	i	0.7	15	-2	2.4	1.7	CN1CCC(N(C)C(=O)CCc2nc3ccccc3n2-c2ccccc2)CC1
5.5	i	0.67	0	/	-0.1	3.6	CCCN1CCC(NC(=O)Nc2cc(Cl)ccc2OC)CC1
1.2	i	0.65	-1	13	-4.1	6.6	C=CCn1c(CNC(=O)c2ccco2)nnc1SCC(=O)Nc1cccc(F)c1
1.3	/	0.68	1	-9	2.1	2.0	O=C(COc1ccccc1)Nc1nc2ccccc2[nH]1
0.8	/	0.69	6	-6	6.0	-1.5	COc1cccc(N(C(=O)CNC(=O)c2ccco2)C(C(=O)NC2CCCC2)c2ccncc2)c1 (centres undefined)
4.2	i	0.71	-1	-27	2.9	-4.8	C=CCNC(=O)c1ccccc1CCc1ccccc1
4.1	i	0.65	1	3	17	2.5	Cc1noc(C)c1S(=O)(=O)Nc1ccccc1Oc1ccccc1
1.2	i	0.73	3	-7	-2.3	2.2	COc1ccc(C2c3sc(=O)[nH]c3SCC2C(N)=O)cc1 (centres undefined)

New compounds follow:
UCH37 inh	FGF22 binding	E coli growth	B2AR ag	ALR inh	HNF4A DNA FP	LANA-H2B inh	Structure
0.7	/	0.7	7	-4	1.8	4.0	CCOC(=O)C1CCN(C(=O)Nc2ccc(Cl)cc2)CC1
1.5	/	0.7	-12	2	3.3	1.3	O=C(c1ccc(Br)s1)N1CCN(c2ncccn2)CC1
/	i	/	0	-4	-2.1	0.0	Nc1nonc1-n1nnc(C(=O)N/N=C/C2CC=CCC2)c1CSc1ccccc1 (centres undefined)
2.7	i	0.7	0	0	0.1	-0.5	O=C(CN1CCCCCC1)Nc1ccccc1Oc1ccccc1
-1.1	i	0.65	0	/	-0.1	1.1	O=C(COC(=O)/C=C/c1ccccc1F)Nc1nnc(-c2ccccc2)o1
3.2	i	0.7	4	-3	-2.1	9.1	CCOC(=O)C1CCN(C(=S)NC(=O)c2cccs2)CC1
-0.9	i	0.67	1	22	-0.3	-1.1	Cn1c(=O)c(C(=O)CCl)c(N)n(Cc2ccccc2)c1=O
-2.4	i	0.7	4	7	-2.8	-0.8	CN(C(=O)COc1ccccc1)c1nc(-c2ccc(F)cc2)cs1

An excerpt of these results, as labelled records:
CCOC(=O)C1CCN(C(=S)NC(=O)c2cccs2)CC1
  UCH37 inh: 3.2; FGF22 binding: i; E coli growth: 0.7; B2AR ag: 4; ALR inh: -3; HNF4A DNA FP: -2.1; LANA-H2B inh: 9.1
Cn1c(=O)c(C(=O)CCl)c(N)n(Cc2ccccc2)c1=O
  UCH37 inh: -0.9; FGF22 binding: i; E coli growth: 0.67; B2AR ag: 1; ALR inh: 22; HNF4A DNA FP: -0.3; LANA-H2B inh: -1.1
Nc1nonc1-n1nnc(C(=O)N/N=C/C2CC=CCC2)c1CSc1ccccc1 (centres undefined)
  UCH37 inh: /; FGF22 binding: i; E coli growth: /; B2AR ag: 0; ALR inh: -4; HNF4A DNA FP: -2.1; LANA-H2B inh: 0.0
O=C(CN1CCCCCC1)Nc1ccccc1Oc1ccccc1
  UCH37 inh: 2.7; FGF22 binding: i; E coli growth: 0.7; B2AR ag: 0; ALR inh: 0; HNF4A DNA FP: 0.1; LANA-H2B inh: -0.5

Next part:
UCH37 inh	FGF22 binding	E coli growth	B2AR ag	ALR inh	HNF4A DNA FP	LANA-H2B inh	Structure
4.2	i	0.69	-3	-7	5.3	1.2	Cn1c(Cn2nnc3ccccc32)nnc1SCC(=O)N1c2ccccc2CCc2ccccc21
3.2	i	0.68	-11	1	-3.5	-12	O=C(NCc1ccccn1)C1CCCCC1
-1.3	/	0.72	-4	2	1.9	2.5	CN1C(=O)NC(c2ccccc2)C2=C1CN(CCc1ccccc1)C2=O (centres undefined)
1.1	i	0.7	4	-4	2.0	0.1	Cc1cc(S(=O)(=O)N2CCOCC2)ccc1OCC(=O)N1CCCC1
-16	i	0.71	-3	/	1.8	/	CCN(C(=O)COC(=O)c1cc(=O)[nH]c2ccccc12)c1c(N)n(Cc2ccccc2)c(=O)[nH]c1=O
-0.3	i	0.64	-3	-2	3.1	-1.2	O=C1C2CCCN2C(=O)N1CCCCN1CCN(CCO)CC1 (centres undefined)
4.7	i	0.69	4	2	2.3	3.0	CCOc1ccc(C(=O)N(CC)CC(=O)Nc2ccc3c(c2)OCCO3)cc1
-1.0	i	0.65	0	4	-0.2	-2.3	Cc1c(NC(=O)c2cc(-c3ccc(Br)cc3)on2)c(=O)n(-c2ccccc2)n1C

Continuation.
UCH37 inh	FGF22 binding	E coli growth	B2AR ag	ALR inh	HNF4A DNA FP	LANA-H2B inh	Structure
7.3	/	0.74	-3	/	-1.0	-0.1	Cc1cccc(N(CC(=O)NCc2ccccc2)C(=O)Cn2nnc(-c3ccc(C)o3)n2)c1
7.5	/	0.73	8	-7	-3.1	-2.6	COc1c(OC(C)=O)ccc(/C=C/c2ccc3cccc(OCc4ccccc4)c3n2)c1[N+](=O)[O-]
2.2	i	0.67	-1	-5	-0.3	2.4	COc1ccc(CNC(=O)CN2C(=O)NC3(CCCCCCC3)C2=O)cc1
/	/	/	-1	-9	-1.0	4.5	COc1ccc(-c2cccc(NC(=O)COc3ccc(Cl)cc3)c2)nn1
-2.4	i	0.68	2	/	2.3	/	Cc1ccc(C(=O)N2CCCC(CCC(=O)NCc3ccc(F)c(F)c3)C2)cn1 (centres undefined)
